High-throughput results deposited in PubChem BioAssay by several laboratories.
Sa RN4220 lethal: kills Staphylococcus aureus RN4220 | S. aureus RN4220 growth, OD600, 16 h | inhibition, % (no concentration beside the values) | 330,000 tested, 0.33% active | AID 1259311;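 active = z-score of -3 or lower and OD600 up to 0.18 on both plates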;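 also: plate controls were untreated cells for no effect and reference antibiotic for full effect; stock transfer was 100 nL into about 80 µL; one replicate is shown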
PrP UTR inh: inhibition of PrP 5' UTR reporter expression; inhibition, % (concentration not given with the values); cell-based PrP 5' UTR mRNA reporter, plate reader; 340,000 tested, 0.35% active; AID 488862;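 active = every replicate at 50% or more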;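 also: 0 = median of the neutral control wells; tested in H4 reporter cells; numbers are from one replicate; inactives centre near -14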
Autofluor counter: compound fluorescence in toxin protease inhibitor counterscreen | compound autofluorescence counterscreen, microsphere flow cytometry; active compounds read high | fluorescence intensity (concentration not given with the values) | 360,000 tested, 3.1% active;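 active = at least 3 SD above the mean of all compounds, about 16000 in these data; inconclusive = too few beads counted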;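 also: 100 nL of 1 mM stock went into each well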
ugtP null kill: compounds lethal to S. aureus RN4220 ugtP deletion mutant. AID 1259309. OD600 growth, 16 h; some inactives read as strong as hits. growth inhibition, % (concentration not given with the values). 330,000 tested, 0.54% active;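 active = z-score under -3 and OD600 up to 0.15 on both plates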;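 also: plate controls were untreated wells for no effect and antibiotic for full effect; wells of about 80 µL received 100 nL stock; the first replicate is given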
BJeLR viability: kills HRASV12-expressing BJeLR cells. 300,000 tested, 0.17% active. inhibition, % (no concentration beside the values). BJeLR (HRASV12) viability, CellTiter-Glo ATP luminescence, 48 h; reference of the scale not given here;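 active = replicate mean above 50%; inconclusive = above 50% but judged a plate artefact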;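 also: 50 nL library stock added to about 25 µL; numbers are from one replicate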
Mtb hypoxia inh: reduces hypoxia-regulated biosensor signal in M. tuberculosis. 300,000 tested, 0.1% active. fluorescence inhibition, % (no concentration beside the values). M. tuberculosis hypoxia-regulated fluorescent reporter, fluorescence. AID 1159583;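 active = 35 to 45% if threefold the growth effect, above 45% if 1.5-fold the growth effect; inactive = the rest, general growth blockers included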;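 also: wells of about 50 µL received 100 nL stock; 0% = vehicle wells and 100% = reference inhibitor wells; whole bacteria with a GFP reporter of the hypoxia response; strong numbers were not always called active; many hits fall short of the cut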
Mtb hypoxia inh growth: recorded beside Mtb hypoxia inh, whose call it bears; growth inhibition, %; measured here: M. tuberculosis growth (absorbance);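 0% = vehicle and 100% = reference antibiotic; read after six days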
* hit, by the source's call; ? = inconclusive; · = no result given.

structure	BJeLR viability	PrP UTR inh	Sa RN4220 lethal	Mtb hypoxia inh	Mtb hypoxia inh growth	Autofluor counter	ugtP null kill
CN(Cc1cccc(F)c1)C(=O)C1CC(=O)N(c2ccc3c(c2)OCCO3)C1 (stereo unspecified)	·	-16	-2.6	3	-10	3524	-3
Cc1cccn2c(=O)c(/C=C(\C#N)C(=O)NCc3ccco3)c(N3CCCCCC3)nc12	-12	·	8.1	-2	4	3328	-8
COc1ccc(OC)c(C2/C(=C(/O)c3ccc(C)cc3)C(=O)C(=O)N2Cc2ccco2)c1 (stereo unspecified)	4	-25	9.9	17	4	2339	6
COc1ccccc1CNC(=O)c1cc(S(=O)(=O)N2CCOCC2)cn1C	-3	0	6.0	-4	0	6414	10
Cc1nc2ccccc2nc1OCC(=O)NCC(F)(F)F	5	-19	3.0	4	1	2304	13
NC(=O)c1ccc(NC(=O)COC(=O)C2CC(=O)N(Cc3ccccc3)C2)cc1 (stereo unspecified)	7	-18	-0.3	11	7	3264	4
Cc1cccc2sc(NC(=O)CSCc3ccccc3)nc12	-1	-12	-1.1	-11	-3	23019*	-19
Cc1cccc(/C(N)=N/OC(=O)COc2ccc(Cl)cc2)c1	·	-11	4.0	-7	-8	1992	-1
CN(C(=O)CSc1ncnc2scc(-c3ccccc3)c12)C1CCS(=O)(=O)C1 (stereo unspecified)	-3	-17	8.0	-1	-13	4397	-10
COc1ccc(CCN2CCCn3c2nc2c3c(=O)n(CC(C)C)c(=O)n2C)cc1OC	4	-6	5.2	-4	-14	4151	2
O=C(CSC1=Nc2ccccc2C2CC=NN12)NCc1ccco1 (stereo unspecified)	·	-25	3.1	13	16	4192	-1
Cc1nn(C)c(C)c1C1Nc2ccccc2C(=O)N1O (stereo unspecified)	-6	-19	2.6	0	1	10366	-3
CC(C)OC(=O)COc1cc(O)c2c(=O)cc(-c3ccccc3)oc2c1	-5	2	11	7	7	5171	-6
Cc1cccc(N2CCN(C(=O)c3cccn4c(=O)c5c(C)c(C)sc5nc34)CC2)c1C	-7	-4	4.4	4	4	2961	-1
O=C1COc2ccc(C(=O)COC(=O)c3nc(Cl)ccc3Cl)cc2N1	·	-24	3.2	3	-2	4926	3
CSc1ccc(C(=O)C2CCCN(C(=O)CCc3c(C)nn(C)c3C)C2)cc1 (stereo unspecified)	-2	-15	4.8	8	-4	4611	15
COc1ccc(Cl)cc1NC(=O)CSc1nnc(Cc2cccn2C)n1-c1ccc(F)cc1	1	-11	-4.6	·	·	4794	6
CCOC(=O)c1ccc2ncc(C(=O)OCC)c(NCCN(C)C)c2c1	7	-17	1.9	4	5	6046	17
S=c1[nH]nc(C2CCCCC2)n1N=Cc1ccc(Br)cc1	·	·	1.3	-6	2	·	-4
O=C(CN1CCOCC1)Nc1ncccn1	-2	-41	4.0	8	5	4426	-5
CCOc1ccccc1N1CC(C(=O)Nc2cc(S(C)(=O)=O)ccc2Cl)CC1=O (stereo unspecified)	-5	-7	-0.2	-3	-9	5186	6
CC(C)(C)NC(=O)CSc1nc(N)cc(=O)[nH]1	5	-15	1.7	-7	-1	4463	6
NC(=O)COC(=O)c1ccccc1OCc1ccccc1	0	-11	·	·	·	3298	·
CCCCSc1nc(C)[nH]c1[N+](=O)[O-]	2	-9	2.3	-3	5	·	0
CCCCn1c(NC(C)=O)c(C#N)c2nc3ccccc3nc21	10	-9	25	10	2	3808	3
CCOC(=O)c1c(C)nc2sc3c(=O)n(-c4ccc(C)cc4)cnc3c2c1-c1ccc(OC)cc1	-3	-10	-12	15	16	2612	-5
COc1ccc(-c2nc(CS(=O)(=O)CC(=O)NCc3cccc(Br)c3)c(C)o2)cc1	-12	50	-12	8	11	4396	-4
O=C(NC1CCCCC1)/C(=N\O)c1ccccn1	0	-40	·	·	·	7500	·
Cc1ccc(C(=O)NCCCNC(=O)c2ccccc2C)cn1	-3	-21	2.4	9	-6	3255	-3
O=C(Nc1cnccn1)c1ccc(F)cc1Cl	7	-15	-4.0	9	1	4250	2
C#CC[N+]1(CC#Cc2ccccc2)CCOCC1	2	-3	3.0	17	10	2405	2
CCN(C(=O)CSc1nc2cc(S(=O)(=O)N(CC)CC)ccc2o1)C1CCS(=O)(=O)C1 (stereo unspecified)	10	-5	3.7	-13	-8	6270	3
Cc1ccccc1OCC(=O)NCC(=O)NN=Cc1cccc([N+](=O)[O-])c1	·	·	6.0	2	-1	·	3
COCCN=c1scc(-c2cc(OC)ccc2OC)n1N=Cc1c[nH]c2ccccc12	·	·	-2.9	4	8	·	-5
COC(=O)CN1C(=O)C2C(C=Cc3ccccc3)N3C(=O)CN(CCO)C(=O)[C@@]3(Cc3ccccc3)C2C1=O (stereo partly specified)	·	·	1.9	7	8	·	10
Cc1cc2nc3n(c2cc1C)CCCN3	-24	-13	3.1	5	3	3932	4
Cc1nnsc1C(=O)NNc1ccc(C(C)C)cc1	-1	-34	3.4	1	4	3731	5
Nc1nonc1-n1nnc(C(=O)NN=Cc2ccccc2Cl)c1CN1CCOCC1	·	·	15	-5	1	·	2
N/C(=N\OS(=O)(=O)c1ccc(Cl)cc1)c1ccccn1	·	-19	0.6	-10	-3	4282	4
COc1cc(OC)cc(C(=O)NC(C(=O)N2CCC2)C(C)C)c1 (stereo unspecified)	·	-9	0.8	0	1	4890	1
CC1CCCCN1CCNS(=O)(=O)c1ccc2c(c1)oc(=O)n2C (stereo unspecified)	3	2	2.0	4	5	22199*	2
CC(C)CCNC(=S)Nc1ccc([N+](=O)[O-])cc1	-12	-25	25	-5	11	2477	-1
CCC(C)C(NC(=O)C1CCC(C)CC1)C(=O)NC(CCSC)C(=O)OC (stereo unspecified)	-9	2	0.0	2	1	3271	2
Cc1cccc(Cc2cnc(NC(=O)CN3C(=O)/C(=C/c4ccccc4)SC3=S)s2)c1	-4	-16	21	-4	1	3067	12
CCOC(=O)C1=C(C)NC(C)=C(C(=O)OCC)C1C(=O)OCC(=O)N1CCCCC1C (stereo unspecified)	·	5	-0.5	-8	-10	2901	2
CCc1c(-c2ccccc2)nc2nc(C)c(C)nn12	10	-35	-0.4	15	18	4276	-14
CCOc1ccc(S(=O)(=O)N2CCOCC2)cc1NC(=O)c1ccc(N2CCCC2=O)cc1	-3	-3	1.4	3	2	5741	3
FC(F)(F)c1cccc(Cn2c3[n+](c4ccc(C(F)(F)F)cc42)CCCCC3)c1	3	-12	6.4	-3	13	4603	2
O=C(C1CCN(S(=O)(=O)c2ccc(F)cc2)CC1)N1CCCC(C(F)(F)F)C1 (stereo unspecified)	1	-22	3.6	3	0	6362	8
Cc1[nH]c2ccccc2c1CCN(Cc1cccs1)C(=S)Nc1ccccc1	-1	-12	2.7	1	-1	6335	-6
C=CC[n+]1c(C)csc1Nc1ccc(C)cc1	0	-21	9.7	7	8	2148	15
CCNC(=S)N/N=C/c1cccc(OCc2c(F)cccc2Cl)c1	-7	-10	·	·	·	1954	·
Cc1ccc(C)c(S(=O)(=O)N2CCC(c3nc4c(nnn4Cc4ccc5c(c4)OCCO5)c(=O)[nH]3)CC2)c1	-5	-14	-2.1	-4	3	5665	3
CC(=O)c1ccc(OCCCC(=O)OCc2nnc(-c3ccc(Cl)cc3)o2)cc1	0	-14	-0.7	-5	-9	9698	-7
COc1ccc(CN(C)C(=O)c2ccc(Cl)c(S(=O)(=O)NCc3cccnc3)c2)cc1F	·	-19	5.2	-4	4	4068	3
Cc1cc(C)nc(SCCn2c(N3CC(C)OC(C)C3)nc3c2c(=O)n(C)c(=O)n3C)n1 (stereo unspecified)	6	2	2.5	6	2	4142	4
O=C(N/N=C/c1ccccc1Cl)c1ccc(F)cc1	2	-56	·	·	·	10796	·
CC1CN=C(N(C(=O)Nc2ccccc2)c2ccc(F)cc2)S1 (stereo unspecified)	2	-2	-0.2	·	·	4046	6
Cc1sc2ncnc(SCc3ccc(C(=O)O)cc3)c2c1C	16	-26	26	14	7	4530	4
CC[C@]12c3[nH]c4ccc(Cl)cc4c3CCN1C(=O)[C@@H](CC(=O)NCCC1=CCCCC1)C[C@@H]2C(=O)N1CCN(C(=O)c2ccco2)CC1	·	-5	-1.5	2	2	3341	-11

Single records, as listed above.
COc1ccccc1CNC(=O)c1cc(S(=O)(=O)N2CCOCC2)cn1C in the list: BJeLR viability: -3; PrP UTR inh: 0; Sa RN4220 lethal: 6.0; Mtb hypoxia inh: -4; Mtb hypoxia inh growth: 0; Autofluor counter: 6414; ugtP null kill: 10
COc1ccc(Cl)cc1NC(=O)CSc1nnc(Cc2cccn2C)n1-c1ccc(F)cc1 in the list: BJeLR viability: 1; PrP UTR inh: -11; Sa RN4220 lethal: -4.6; Mtb hypoxia inh: ·; Mtb hypoxia inh growth: ·; Autofluor counter: 4794; ugtP null kill: 6

(further entries)
structure	BJeLR viability	PrP UTR inh	Sa RN4220 lethal	Mtb hypoxia inh	Mtb hypoxia inh growth	Autofluor counter	ugtP null kill
CCCCP(=O)(CCCC)Cc1ccccc1O	3	-2	0.3	·	·	2462	-2
Cc1ccc(C)c(NC(=S)Nc2cccc3cnccc23)c1	10	-12	-0.6	-5	11	4543	-2
OCCN(Cc1ccccc1)Cc1cccc(C(F)(F)F)c1	·	-6	6.4	5	4	23013*	2
COc1ccccc1N1CCN(C(=O)CSc2nc(C)c(C)c(=O)[nH]2)CC1	0	-6	3.8	-4	13	4485	-1
O=C(O)c1cccc(S(=O)(=O)N(Cc2ccccc2)c2ccccc2Cl)c1	-2	-11	15	5	5	3772	6
Cc1ccc(C(=O)C2CCN(CC(=O)NC3CCCCC3)CC2)cc1	-1	-20	4.1	8	9	8487	16
CCN(Cc1ccccc1)C(=O)c1c(-c2ccccc2Cl)noc1C	-10	-11	4.4	0	-9	3554	6
Cc1ccc(NC(=O)c2cc([N+](=O)[O-])ccc2Cl)c(O)c1	11	-3	3.2	7	7	2203	-4
Cc1cc(OCC(=O)Nc2ccc(Br)cc2)cc2c1C(=O)CC(C)(C)O2	-4	·	-10	10	0	5003	-4
Cc1cccc(NC(=O)NC2CCCc3ccccc32)c1 (stereo unspecified)	5	-23	-3.2	6	7	5688	-2
O=C(c1cccc(S(=O)(=O)N2CCN(c3ccccc3)CC2)c1)N1CCN(c2ccccc2O)CC1	-2	10	3.3	8	10	5110	2
COCC(=O)OC/C(O)=C(\C#N)c1nc2ccccc2[nH]1	2	-33	-1.0	6	-7	4057	-1
O=C(Nc1ccc(F)cc1)Nc1cccnc1Cl	10	-39	1.1	1	6	2941	6
Cn1cc(-c2ccno2)c(C(=O)O)n1	3	-34	1.6	14	5	4703	0
CCC(Sc1ccc2nnc(-c3ccc(F)cc3)n2n1)C(=O)OC (stereo unspecified)	-13	-3	2.4	-8	2	7312	5
O=C(/C=C/c1ccco1)Oc1cc(Br)cc(C=NNC(=O)c2ccccc2O)c1	·	·	10	7	-9	·	27
C(=N\n1cnnc1)/c1cn(-c2cccs2)nc1-c1ccccc1	-10	-34	·	·	·	9444	·
Cc1[nH]n(-c2ccccc2)c(=O)c1C(C[N+](=O)[O-])c1ccc(Br)cc1 (stereo unspecified)	1	-1	4.8	·	·	3355	12
CCOC(=O)C1CCCN(CC(O)COc2ccccc2C(C)=O)C1 (stereo unspecified)	6	-12	5.2	10	13	22881*	8
Cn1cc(Cl)c(C(=O)NNC(=S)NCc2ccco2)n1	-4	-11	-1.0	-8	2	4015	2
COc1ccc(Cl)cc1NC(=O)c1oc(C)nc1C	3	-1	4.1	3	4	11299	-12
COc1ccc2oc(C(=O)N3CCN(C/C=C/c4ccccc4)CC3)c(C)c2c1	·	-16	-9.4	3	3	3049	13
CN(CC(=O)N1CCCCC1)S(=O)(=O)c1ccc(Cl)cc1	-3	-25	1.5	3	11	3944	-3
Cc1ccc(OCC(=O)Nc2nc(C)c(Cl)cc2Cl)c([N+](=O)[O-])n1	·	4	-1.8	-8	6	?	-3
Cc1cc2cc(CN(Cc3cccs3)C(=S)NCc3ccco3)c(=O)[nH]c2cc1C	6	-11	2.7	9	4	2485	-20
